Source: PubChem BioAssay
Rce1 inh – inhibitors of yeast Ras-converting enzyme; calls only; AID 2563; yeast membranes, quenched prenylated peptide cleavage fluorescence; 290,000 compounds, 0.27% hits;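 active = fall in fluorescence gain of 50% or more versus controls, with final raw signal at or below 3038400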;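 also: plate controls were neutral control wells for no effect and wells lacking membranes for full effect; tested at 10 µM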
Target sequence (Q03530 whole entry, looked up): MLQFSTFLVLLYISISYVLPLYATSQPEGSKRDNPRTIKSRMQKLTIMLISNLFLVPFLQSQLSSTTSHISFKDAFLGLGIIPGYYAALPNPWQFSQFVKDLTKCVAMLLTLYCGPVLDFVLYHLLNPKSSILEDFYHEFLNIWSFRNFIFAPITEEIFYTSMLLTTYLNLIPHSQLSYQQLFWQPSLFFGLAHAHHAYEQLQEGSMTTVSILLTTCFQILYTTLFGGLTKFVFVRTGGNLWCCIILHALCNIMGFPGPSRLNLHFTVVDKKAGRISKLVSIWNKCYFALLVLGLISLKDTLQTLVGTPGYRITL
UUG fidelity – alters start codon recognition fidelity in yeast; S. cerevisiae UUG-firefly luciferase reporter, luminescence/redox ratio; AID 602363; activity score, % at 18.7 µM; 350,000 compounds, 0.13% hits;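 active = replicate mean at a twofold rise or more, about +100% in these data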;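 also: firefly luciferase made from a UUG start codon reports start codon fidelity; reporter light over untreated wells divided by growth signal over untreated wells; some hits fall short of that in this replicate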
CSC inhib – blocks cancer stem cells; inhibition, % at 7.5 µM; cancer stem cell-like cells viability, luminescence; 300,000 compounds, 1.1% hits; AID 2717;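 active = mean at 75% or more and at least half the replicates too; tested in HMLE shEcad cells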;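 also: 0% = median of negative and 100% = median of positive control wells; the first replicate is given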
Active calls of the source: *; i = inactive; . = no result given; + = active, no number. Not all compounds are listed (hit frequency here may not be typical).

SMILES	Rce1 inh	UUG fidelity	CSC inhib
O=C1N[C@@H](Cc2ccccc2)C(=O)N2[C@H]3Nc4ccccc4[C@@]3([C@]34C[C@H]5C(=O)N[C@@H](Cc6ccccc6)C(=O)N5[C@H]3Nc3ccccc34)C[C@@H]12	i	.	-13
COC(=O)c1ccccc1NC(=O)CC(NCc1ccccc1)C(=O)O (stereo not given)	i	.	-2
O=C1N[C@H](Cc2ccccc2)C(=O)N[C@H]1Cc1cn(S(=O)(=O)c2ccccc2)c2ccccc12	i	.	-19
O=c1ncc(F)c[nH]1	i	.	3
CC(=O)OC1=C(O)C(=O)c2ccccc2C1=O	+	.	-6
CCOC(=O)C1=C(C)NC(C)=C(C(=O)OCC)C1c1nc2ccccc2[nH]1	i	.	-13
Cn1c(SCC(=O)Nc2ccc(N3CCOCC3)c(Cl)c2)nnc1-c1ccccc1	i	.	-8
Cc1cccc2c1Sc1ccc(Cl)cc1CC2N1CCNCC1 (stereo not given)	i	.	102*
CC(C)=CCc1c(-c2ccc(O)cc2O)oc2cc3c(c(O)c2c1=O)C=CC(C)(C)O3	i	.	-8
CC1(OC(=O)c2cccs2)C(=O)C=C2C=C(c3ccsc3)OC=C2C1=O (stereo not given)	i	.	-13
COC(=O)CCC(=O)OC1(C)C(=O)C=C2C=C(C3CC3)N(c3ccc(CO)cc3)C=C2C1=O (stereo not given)	i	.	-6
O=C(Nc1ccccc1-c1nnn(CC(=O)N2CCCc3ccccc32)n1)c1cccc(Cl)c1	i	.	17
CCc1nc(SCc2nnc(-c3ccc(C)cc3)o2)c2c(C)c(C)sc2n1	i	.	14
C#CCOCCOCCOCCNc1nc(N2CCN(C(=O)C([C@@H](C)CC)n3cc(C(N)COC(=O)C(F)(F)F)nn3)CC2)nc(N2CCN(C(=O)[C@H](CCCCN)n3cc(C(N)[C@H](C)CC)nn3)CC2)n1 (stereo not given in full)	i	.	-13
Nc1nc2c(ncn2CCC(CO)CO)c(=O)[nH]1	i	.	-4
COC/C=C/C1=CC2=CC(=O)C(C)(O)C(=O)C2=CO1 (stereo not given)	i	.	0
COc1ccc(-c2nn(C)c(=O)c3ccccc23)cc1CNC(=O)CN1CCOCC1	i	.	0
O=C1N[C@@H](Cc2cn(S(=O)(=O)c3c(F)c(F)c(F)c(F)c3F)c3ccccc23)C(=O)N[C@H]1Cc1ccccc1	i	.	1
CCC/C=C(\CCC)C(NC(=O)c1ccc(C(F)(F)F)cc1)c1ccccc1 (stereo not given)	i	.	24
CN1CCN(S(=O)(=O)c2ccc(N(C)CC(=O)Nc3ccc(F)cc3)nc2)CC1	i	.	36
Cc1nn2c(=O)nc3sc4c(c3c2[nH]c1=O)CCCC4	i	.	-3
COC(=O)CCCC1=CC2=CC(=O)C(C)(OC(=O)c3ccc(Cl)nc3)C(=O)C2=CO1 (stereo not given)	i	.	-4
CCCCC1=CC2=CC(=O)C(C)(OC(=O)c3ccc(Cl)nc3)C(=O)C2=CO1 (stereo not given)	i	.	-4
C[C@H]1[C@@H](OC(=O)CCC(=O)O)O[C@@H]2OC3(C)CC[C@H]4[C@H](C)CC[C@@H]1[C@@]24OO3	i	.	5

Sorted by length of the SMILES (highest first): part of the list above.
SMILES	Rce1 inh	UUG fidelity	CSC inhib
C#CCOCCOCCOCCNc1nc(N2CCN(C(=O)C([C@@H](C)CC)n3cc(C(N)COC(=O)C(F)(F)F)nn3)CC2)nc(N2CCN(C(=O)[C@H](CCCCN)n3cc(C(N)[C@H](C)CC)nn3)CC2)n1 (stereo not given in full)	i	.	-13
O=C1N[C@@H](Cc2cn(S(=O)(=O)c3c(F)c(F)c(F)c(F)c3F)c3ccccc23)C(=O)N[C@H]1Cc1ccccc1	i	.	1
C[C@H]1[C@@H](OC(=O)CCC(=O)O)O[C@@H]2OC3(C)CC[C@H]4[C@H](C)CC[C@@H]1[C@@]24OO3	i	.	5
COC(=O)CCCC1=CC2=CC(=O)C(C)(OC(=O)c3ccc(Cl)nc3)C(=O)C2=CO1 (stereo not given)	i	.	-4
CC(C)=CCc1c(-c2ccc(O)cc2O)oc2cc3c(c(O)c2c1=O)C=CC(C)(C)O3	i	.	-8
O=C(Nc1ccccc1-c1nnn(CC(=O)N2CCCc3ccccc32)n1)c1cccc(Cl)c1	i	.	17
CN1CCN(S(=O)(=O)c2ccc(N(C)CC(=O)Nc3ccc(F)cc3)nc2)CC1	i	.	36
COc1ccc(-c2nn(C)c(=O)c3ccccc23)cc1CNC(=O)CN1CCOCC1	i	.	0
CC1(OC(=O)c2cccs2)C(=O)C=C2C=C(c3ccsc3)OC=C2C1=O (stereo not given)	i	.	-13
CCc1nc(SCc2nnc(-c3ccc(C)cc3)o2)c2c(C)c(C)sc2n1	i	.	14
COC/C=C/C1=CC2=CC(=O)C(C)(O)C(=O)C2=CO1 (stereo not given)	i	.	0
Cc1nn2c(=O)nc3sc4c(c3c2[nH]c1=O)CCCC4	i	.	-3
Cc1cccc2c1Sc1ccc(Cl)cc1CC2N1CCNCC1 (stereo not given)	i	.	102*
Nc1nc2c(ncn2CCC(CO)CO)c(=O)[nH]1	i	.	-4

(next part)
SMILES	Rce1 inh	UUG fidelity	CSC inhib
CCOC(=O)C1=C(C)NC(C)=C(C(=O)OCC)C1c1ccccc1/C=C/C(=O)OC(C)(C)C	i	.	99*
NNC(=O)c1ccccc1CO	i	.	-2
N#C/C(=C\c1cccc2ccccc12)c1nn(-c2ccccc2)c(N)c1C#N	i	.	30
C=C[C@H]1[C@H](OC2OC(CO)C(O)C(O)C2O)OC=C(C(=O)OC)[C@H]1C[C@H]1CC(=O)C[C@H](CC(=O)CCc2ccc(O)cc2)O1 (stereo not given in full)	i	.	-9
Cn1c(N)c(C(=O)COC(=O)c2cc(-c3ccccc3)nc3ccccc23)c(=O)n(C)c1=O	i	.	-7
COc1ccc2nc(Nc3nc(CSc4nc5ccccc5s4)cc(=O)[nH]3)nc(C)c2c1	i	.	7
Cc1nn(Cc2ccccc2)c(C)c1NC(=O)CSc1nc2sc3c(c2c(=O)n1C)CCC3	i	.	0
COc1ccc(OC)c2sc(N(CCCN(C)C)C(=O)c3ccc(S(=O)(=O)N4CCc5ccccc5C4)cc3)nc12	i	.	101*
CC(C)=CCc1c2c(c(O)c3c(=O)c4c(oc13)-c1cc(O)c(O)cc1OC4C=C(C)C)C=CC(C)(C)O2 (stereo not given)	i	.	-10
CCOC(=O)c1c2c(n(C)c1COC)C(=O)C(=O)c1ccc(Br)cc1-2	i	.	121*
CCCc1cc(=O)[nH]c(/N=C(/NC(=O)c2ccccc2)Nc2ccc3c(c2)OCCO3)n1	i	.	13
CO[C@H]1CN(C)C(=O)c2cc(NC(=O)NC3CCCCC3)ccc2OC[C@@H](C)N(C(C)=O)C[C@H]1C	.	-2	.
C[C@@H]1CN([C@H](C)CO)C(=O)c2cc(NS(=O)(=O)c3cccs3)ccc2O[C@H]1CN(C)C(=O)Nc1cccc2ccccc12	.	-4	.
COCC(=O)N1CCCCN2[C@H](CO)[C@@H](c3ccc(-c4cccc(C)c4)cc3)[C@H]2C1	.	-2	.
O=C(Nc1cc(F)ccc1F)N1CCCCN2[C@@H](CO)[C@@H](c3ccc(-c4cccnc4)cc3)[C@@H]2C1	.	-11	.
O=C(Nc1cc(F)ccc1F)N1CCCCN2[C@H](C1)[C@@H](c1ccc(-c3cccnc3)cc1)[C@@H]2CO	.	-16	.
Cc1ccccc1-c1ccc([C@H]2[C@@H](CO)N3CCCCN(S(=O)(=O)c4ccc(F)cc4)C[C@H]23)cc1	.	-5	.
COCC(=O)N1C[C@H](C)[C@@H](OC)CN(C)C(=O)c2ccc(NC(=O)C3CCC3)cc2OC[C@H]1C	.	-17	.
CCC(=O)N1[C@H](CN(C)C(C)=O)[C@@H](c2ccc(-c3ccc(F)cc3)cc2)[C@@H]1CO	.	-9	.
C[C@H](CO)N1C[C@H](C)[C@H](CN(C)Cc2ccncc2)Oc2ccc(NS(=O)(=O)c3ccc(F)cc3)cc2C1=O	.	16	.
CO[C@@H]1CN(C)C(=O)c2ccc(NS(C)(=O)=O)cc2OC[C@@H](C)N(C(=O)C2CCC2)C[C@@H]1C	.	4	.
COc1ccc(CN(C)C[C@H]2Oc3ccc(N(C)C)cc3CC(=O)N([C@@H](C)CO)C[C@@H]2C)cc1	.	-16	.
CO[C@H]1CN(C)C(=O)c2cc(NC(=O)C3CC3)ccc2OC[C@@H](C)N(C(=O)c2ccccc2)C[C@H]1C	.	8	.
COc1ccc(S(=O)(=O)Nc2cccc3c2O[C@H](CN(C)Cc2ccncc2)[C@H](C)CN([C@H](C)CO)C3=O)cc1	.	-7	.
CCN(C[C@@H]1[C@H](c2ccccc2)[C@H](CO)N1C(C)=O)C(=O)c1ccccn1	.	87	.
C[C@@H]1CN([C@@H](C)CO)C(=O)c2cc(NC(=O)Nc3ccc(C(F)(F)F)cc3)ccc2O[C@@H]1CN(C)C(=O)Nc1ccccc1	.	-5	.
Cc1cccc(S(=O)(=O)N(C)C[C@@H]2OCc3cnnn3CCCC(=O)N([C@@H](C)CO)C[C@H]2C)c1	.	-10	.
C[C@@H]1CN([C@H](C)CO)C(=O)CCCn2cc(nn2)CO[C@@H]1CN(C)S(=O)(=O)c1ccc(C#N)cc1	.	13	.
COc1ccc(C#Cc2ccc([C@@H]3[C@H](CO)N4CCCCN(C(=O)Nc5ccc(F)cc5)C[C@@H]34)cc2)cc1	.	-7	.
OC[C@H]1[C@@H](c2ccc(-c3ccccc3)cc2)[C@@H]2CN(Cc3ccccn3)CCCCN12	.	-25	.
C[C@@H]1CN([C@H](C)CO)C(=O)c2cc(N(C)C)ccc2O[C@@H]1CN(C)S(=O)(=O)c1ccc(F)cc1	.	4	.
COc1ccc(CN2C[C@@H](C)[C@H](OC)CN(C)C(=O)c3cc(NC(=O)c4nc5ccccc5s4)ccc3OC[C@@H]2C)cc1	.	5	.
CNC(=O)C[C@@H]1CC[C@H]2[C@@H](COC[C@H](O)CN2C(=O)Nc2cccc(OC)c2)O1	.	-4	.
C[C@@H](NC(=O)C[C@@H]1CC[C@@H]2[C@H](COC[C@H](O)CN2C(=O)Nc2cccc(F)c2)O1)c1ccccc1	.	23	.
C[C@H]1CN([C@@H](C)CO)C(=O)Cc2cc(N(C)C)ccc2O[C@H]1CN(C)S(=O)(=O)c1ccc(F)cc1	.	-4	.
Cc1ccc(S(=O)(=O)N(C)C[C@@H]2Oc3ccc(NC(=O)NC4CCCCC4)cc3C(=O)N([C@@H](C)CO)C[C@@H]2C)cc1	.	-5	.
C[C@H]1CN([C@@H](C)CO)C(=O)CCCn2nncc2CO[C@@H]1CN(C)C(=O)Nc1ccc(F)cc1	.	-4	.
O=C(CC(F)(F)F)N1C[C@H]2[C@@H](c3ccccc31)[C@@H](CO)N2C(=O)c1cccnc1	.	7	.
COc1ccc(C#Cc2ccc([C@@H]3[C@H](CO)N4CCCCN(Cc5ccccc5F)C[C@@H]34)cc2)cc1	.	-1	.
CCC(=O)N1CC[C@H]2[C@H](CO)Nc3ccc(-c4ccc(C(=O)N(C)C)cc4)cc3[C@H]21	.	4	.
CO[C@H]1CN(C)C(=O)c2ccc(NS(=O)(=O)CC(F)(F)F)cc2OC[C@@H](C)N(Cc2nccs2)C[C@@H]1C	.	12	.
CN1c2ccc(-c3ccc(C#N)cc3)cc2[C@@H]2[C@@H](CCN2C(=O)CN2CCOCC2)[C@H]1CO	.	0	.
Cc1ccc(S(=O)(=O)N2CC[C@@H]3[C@H]2c2cc(C#Cc4cccc(F)c4)ccc2N[C@@H]3CO)cc1	.	-4	.
C[C@@H]1CN([C@H](C)CO)C(=O)c2cc(NC(=O)C3CC3)ccc2O[C@@H]1CN(C)S(=O)(=O)c1ccccc1	.	35	.
C[C@H](CO)N1C[C@H](C)[C@@H](CN(C)C(=O)Nc2ccccc2C(F)(F)F)OCc2cn(nn2)CCCC1=O	.	10	.
COc1ccc(S(=O)(=O)N2CCCCN3[C@@H](CO)[C@H](c4ccc(-c5cccnc5)cc4)[C@@H]3C2)cc1	.	-11	.
O=C(c1cccc(F)c1)N1C[C@H]2[C@@H](c3ccccc31)[C@H](CO)N2C(=O)Cc1ccccc1	.	0	.
C[C@@H]1CN([C@H](C)CO)C(=O)c2c(c3ccccc3n2C)-c2ccccc2CO[C@H]1CN(C)Cc1ccc(C(=O)O)cc1	.	-7	.
O=S(=O)(Cc1ccccc1)N1CCCCN2[C@H](CO)[C@@H](c3ccc(C#Cc4ccccc4)cc3)[C@H]2C1	.	6	.
COCCNC(=O)C[C@H]1CC[C@@H]2[C@@H](COc3ccc(NC(=O)c4cc(C)on4)cc3C(=O)N2C)O1	.	-25	.
CO[C@H]1CN(C)C(=O)c2ccc(NC(=O)C3CC3)cc2OC[C@H](C)N(C(=O)CN(C)C)C[C@@H]1C	.	-17	.
C[C@H]1CN([C@@H](C)CO)C(=O)c2cc(NC(=O)CCC(F)(F)F)ccc2O[C@H]1CN(C)S(=O)(=O)c1cccs1	.	-5	.
CN(C)C(=O)c1cccc(-c2ccc3c(c2)[C@H]2[C@H](CCN2C(=O)Cc2ccccc2)[C@@H](CO)N3)c1	.	11	.
Cc1ccc(S(=O)(=O)N(C)C[C@H]2Oc3ccc(NC(=O)Cc4ccccc4)cc3C(=O)N([C@@H](C)CO)C[C@H]2C)cc1	.	12	.
C[C@@H]1CN([C@@H](C)CO)C(=O)c2cc(NC(=O)Cc3cn(C)c4ccccc34)ccc2O[C@@H]1CN(C)S(=O)(=O)c1cccs1	.	-2	.
Cc1ccc(S(=O)(=O)Nc2ccc3c(c2)C(=O)N([C@H](C)CO)C[C@@H](C)[C@H](CN(C)CC2CC2)O3)cc1	.	-7	.
